Screening data as filed in PubChem.
PINK1 modulator – A Quantitative High throughput Screen to Identify Chemical Modulators of PINK1 Expression; PINK1 immunofluorescence, high-content cytometry, 24 h; Potency, µM (titrated, usually from 76.6 µM), for inactives: at the highest dose activation (PINK1 increase), hits mostly activators; 0.2% of 410,000 active; AID 624263, 2012; active = well fitted activation curve with a large enough effect; inconclusive = small, poorly fitted or top-dose-only effect; inactive = flat fitted curve, though single readings scatter; cell line not stated here;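 also: potency is read from the fitted curve at half-maximal effect; % of control where 0% means no effect; nearly all actives have a fitted effect of over 65% in size; a mitochondrial uncoupler was the plate control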
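PINK1 protein, normally rapidly degraded, was detected by immunofluorescence after 24 hour compound treatment of a stable cell line. Titration data (5 concentrations) came from laser-scanning cytometry, with CCCP-treated wells as controls.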
Sfp inh – qHTS Assay for Inhibitors of Bacillus subtilis Sfp phosphopantetheinyl transferase (PPTase). AID 1490, 2009. 3.5% of 310,000 active. 4'-phosphopantetheinyl transferase ffp (Bacillus subtilis), Q9F4F7. Biochemical Sfp PPTase activity, qHTS. Potency, µM, without a hit: max response, negative = inhibition, hits mostly inhibitors; active = well fitted inhibition curve with a large enough effect; inconclusive = small, poorly fitted or top-dose-only effect, or another doubt; inactive = no such curve, though single readings can be large or run the other way;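 also: the enzyme is Sfp with the accession as filed and its product quenches rhodamine fluorescence; potency is read from the fitted curve at half-maximal effect; 0% = enzyme reaction without inhibitor and -100% = no enzyme wells; top concentration of the series not given in the record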
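Sfp 15 nM + cpd, 15 min RT; start w/ rhodamine-CoA 5 uM, BHQ-2-YbbR 12.5 uM (final); 50 mM Hepes pH 7.6, 10 mM MgCl2, 0.01% NP-40, 0.01% BSA; read 525/598 nm at 0 and 30 min.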
ClpP mod – qHTS Assay for Activators of ClpP; Potency, µM (titrated, usually from 57.5 µM), for the others: at the top dose activity change, negative = active; purified B. subtilis ClpP, FRET peptide cleavage, 20 min; 1.9% of 340,000 active; AID 651965, 2013; active = well fitted falling curve with a large enough effect; inconclusive = small, poorly fitted or top-dose-only effect; inactive = no such curve, though single readings can be large or run the other way; also: potency is read from the fitted curve at half-maximal effect; the source files actives as falling curves though it sought activators and does not explain the sign; nearly all actives have a fitted effect of over 65% in size; many hits overshoot -100%
Target sequence (P80244 whole entry, looked up): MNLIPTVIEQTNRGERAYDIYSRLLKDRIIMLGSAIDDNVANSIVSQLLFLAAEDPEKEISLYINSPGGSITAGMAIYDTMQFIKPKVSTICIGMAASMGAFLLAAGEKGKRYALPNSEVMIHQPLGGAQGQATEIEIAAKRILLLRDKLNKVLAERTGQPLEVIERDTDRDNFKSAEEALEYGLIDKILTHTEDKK
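Purified B. subtilis ClpP, 10 microg/mL final in Tris/HCl pH8 with KCl, BSA, glycerol and Tween-20, cleaved an Abz/nitrotyrosine-quenched decapeptide. Fluorescence (ex 320, em 430) was read at 0 and 20 min at room temperature. Delta was normalized to 5.8 microM ADEP and DMSO/no-enzyme controls.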
D2 ag – Beta-Arrestin HTS for Positive Allosteric Modulators of the Human D2 Dopamine Receptor: Agonists; D(2) dopamine receptor (Homo sapiens), P14416; DiscoveRx PathHunter D2 beta-arrestin, luminescence, 90 min; 100% = 57 uM dopamine signal; activation, % (test concentration not listed); 0.084% of 360,000 active; AID 624465, 2012; in the data active = activation above about 40%; inconclusive = about 15% to 40%; inactive = below about 15%; also: compound concentration not given in the record; the text of the record calls up to 30% inactive
Target sequence (P14416 whole entry, looked up): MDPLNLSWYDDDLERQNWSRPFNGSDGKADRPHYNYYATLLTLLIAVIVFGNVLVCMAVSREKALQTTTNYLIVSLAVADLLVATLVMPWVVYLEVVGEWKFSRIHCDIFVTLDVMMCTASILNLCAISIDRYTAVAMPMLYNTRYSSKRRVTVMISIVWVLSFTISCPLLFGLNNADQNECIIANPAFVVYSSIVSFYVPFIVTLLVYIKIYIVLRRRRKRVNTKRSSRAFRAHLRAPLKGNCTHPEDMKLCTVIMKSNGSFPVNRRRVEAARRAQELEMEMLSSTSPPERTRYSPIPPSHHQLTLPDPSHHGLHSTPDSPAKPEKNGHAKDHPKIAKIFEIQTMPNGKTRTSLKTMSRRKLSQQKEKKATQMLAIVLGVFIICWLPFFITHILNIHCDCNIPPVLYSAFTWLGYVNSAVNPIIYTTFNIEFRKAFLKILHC
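DiscoveRx PathHunter D2 beta-arrestin cells (2,100/well) attached overnight, then compound-stimulated 90 min at 37 C in HBSS/10 mM HEPES/0.1% Tween-20 buffer; beta-galactosidase complementation read by luminescence after 1 h at ambient temperature. Dopamine 57 uM final (EC100) as control.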
gsp antagonist – qHTS for Antagonists of gsp, the Etiologic Mutation Responsible for Fibrous Dysplasia/McCune-Albright Syndrome: qHTS | gsp-mutant cells, cAMP HTRF, 30 min; control for the full effect not named in the record | Potency, µM (top dose mostly 76.9 µM), for inactives: top-dose activity change, negative = inhibition, actives largely listed as inhibitors | 0.4% of 340,000 active | AID 624288, 2012; active = falling curve of any shape with a large fitted effect; inconclusive = falling curve, mostly with a smaller effect; inactive = flat or rising curve; cell line not stated here;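 also: intracellular cAMP measured with PDE inhibitor Ro 20-1724 present during compound exposure; potency is read from the fitted curve at half-maximal effect; % is scaled to controls: 0 for no effect and ±100 for the full control effect; nearly all actives have a fitted effect of over 65% in size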
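Cells, 2000/well, grown 16–24 h in DMEM 10% FBS with 0.5 mg/ml G418, then compounds plus […] (300 uM addition stock), 30 min at 37C. cAMP read by HTRF (cAMP-d2 and anti-cAMP antibody-K in lysis buffer) after 30 min RT.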
gsp ag – qHTS for Agonist of gsp, the Etiologic Mutation Responsible for Fibrous Dysplasia/McCune-Albright Syndrome: qHTS | gsp mutant cells, cAMP HTRF, 30 min; control for the full effect not named in the record | 0.13% of 340,000 active | Potency, µM (series often up to 76.9 µM), for the others: at the highest dose activation (cAMP increase), usual class: activators; active = well fitted activation curve with a large enough effect; inconclusive = small, poorly fitted or top-dose-only effect, or another doubt; inactive = no such curve, though single readings can be large or run the other way; cell line not stated here;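 also: phosphodiesterase inhibitor Ro 20-1724 added with compounds to block cAMP breakdown; potency is read from the fitted curve at half-maximal effect; nearly all actives have a fitted effect of over 60% in size; about a fifth of the inactives were tested at one dose only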
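Cells in DMEM/10% FBS with G418 were pretreated with compounds in DMSO plus […] (300 uM stock) for 30 min at 37C. cAMP was measured by HTRF (cAMP-d2 plus anti-cAMP antibody-K) after 30 min at room temperature.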
Menin MLL FP FL – qHTS Assay for Inhibitors Targeting the Menin-MLL Interaction in MLL Related Leukemias: Competition With Fluorescein Labeled MLL-derived Peptide | Fluorescence polarization, fluorescein-MLL peptide displacement from menin | FP activity change, % at 61.4 µM | 290,000 tested, under 10 active | AID 1766, 2009; inconclusive = falling polarisation curve, or a change in total fluorescence; inactive = total fluorescence flat and polarisation flat or rising; no compound was filed as active; the % refers to the polarisation; negative = inhibition;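 also: % of control where 0% means no effect; inhibitors lower the polarisation; unlabelled MLL peptide was the positive control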
Active calls of the source: *; ? = inconclusive; · = no result given; [ ] = another dose, or the depositor's remark.

smiles,gsp antagonist,Sfp inh,PINK1 modulator,ClpP mod,D2 ag,gsp ag,Menin MLL FP FL
COc1ccc([C@H]2CC(=O)C=C(c3cccc(C(C)C)c3)C2)cc1OC,-29.8%,·,14.6%,1.9%,0.5,·,·
Cc1onc(-c2ccccc2)c1C(=O)NC1CC1,11.9%,·,0.3%,·,2.2,-1.1%[15.4 µM],·
Cc1ccccc1S(=O)(=O)N(C)C[C@H]1OCc2cnnn2CCCC(=O)N([C@@H](C)CO)C[C@H]1C,·,·,1.5%,1.3%,-5.0,1.4%,·
CC1O[C@@H](O[C@H]2C(Oc3cc(O)c4c(c3)OC(c3ccc(O)cc3)CC4=O)OC(CO)C(O)C2O)C(O)C(O)C1O (stereo partly drawn),·,8.8%,0.0%,·,·,·,-1.1
CS(=O)(=O)CCCCN=C=S,·,?,1.2%,·,·,·,-1.4
Nc1ncnc2c1ncn2[C@@H]1O[C@H](C(=O)N[C@H]2c3ccccc3C[C@H]2OC=O)[C@@H](O)[C@H]1O,·,·,3.0%,-0.6%,5.5,·,·
CC12CCC(c3c(C(=O)O)nn(-c4ccccc4)c31)C2(C)C (stereo not drawn),-2.2%,7.5%,·,-2.2%,-4.2,0.7%,0.5
CCc1nc2ccc(C(=O)N(C)Cc3ccccc3)cn2c1N(CC)Cc1cccc(Br)c1,·,·,-0.3%,-0.8%,-3.2,·,·
Cc1nc2nc(SCC(=O)NCCCN3CCCCCC3)nn2c(C)c1Cc1ccccc1Cl,-1.5%,-15.0%,3.2%,-9.3%,0.8,?,·
O=C(C[C@H]1C/C=C\C[C@@H](Cc2ccc(F)cc2)C(=O)OC[C@H]2CCCN2C1=O)N[C@H](CO)Cc1ccccc1,-3.6%,·,-0.3%,-2.9%,3.4,-3.8%,·
CCOC(=O)C1=C(C)NC2=C(C(=O)C(C(=O)OCC)C(c3ccc(OC)cc3)C2)C1c1ccccn1 (stereo not drawn),-10.9%[15.4 µM],3.5%,2.5%,-29.4%,-1.8,11.3%,7.2
CC(=O)c1ccc(NC(=O)CSc2ccc(-c3ccco3)nn2)cc1,-0.1%,39.8µM*,1.5%,-6.2%,3.3,-1.0%[15.4 µM],·
Cc1ccnc(N2CCCC(C(=O)Nc3ccc(C)c(C)c3)C2)n1 (stereo not drawn),-11.8%,21.9%,3.6%,·,-4.3,?,·
CC1=CC(=C(C#N)C#N)c2ccccc2N1C,6.6%,3.7%,-0.1%,·,-1.6,-6.8%,?
CC(=O)c1c(C)[nH]c(C(=O)COC(=O)Cc2ccccc2F)c1C,-15.6%,·,2.3%,1.3%,-1.0,-4.2%,·
CC1CCCCN1C/C=C/c1ccccc1[N+](=O)[O-] (stereo not drawn),8.2%,11.1%,1.2%[38.3 µM],0.4%,3.1,-14.1%,5.6
COc1cccc(Nc2nnc(SCC(=O)N3CCOCC3)s2)c1,0.6%,-1.3%,0.8%[38.3 µM],-1.4%,-2.6,-21.3%,3.3
Cc1cnc(NS(=O)(=O)c2ccccc2)c(Br)c1,2.0%,27.6%,0.0%,·,-12.2,-0.3%[15.4 µM],2.9
CCN(CC(=O)Nc1ccc2c(c1)OCCO2)CC(=O)Nc1ccc2c(c1)OCO2,5.1%,-6.0%,-0.6%,·,-3.9,5.7%[15.4 µM],0.9
CNC(=O)CSc1ncnc2c1cnn2-c1ccccc1,-9.3%,3.0%,1.9%,·,2.7,-12.1%[15.4 µM],1.7
COc1ccc(C(=O)CC(=O)C(=O)Nc2ccc(C)cc2Cl)cc1,5.8%,5.4%,4.9%,-0.6%,-7.2,-7.6%[15.4 µM],1.3
COc1ccc(S(=O)(=O)NCC(=O)N(CC(=O)NCC2CCCO2)Cc2ccccc2)cc1 (stereo not drawn),6.7%,9.9%,2.0%,-0.3%,1.2,-0.7%[15.4 µM],0.2
O=C(CSc1cccc[n+]1[O-])Nc1ccc2c(c1)OCCO2,5.6%,18.6%,-1.5%,·,1.5,0.4%,0.2
CCOC(=O)C(C)Sc1nnc2c3ccccc3n(C)c2n1 (stereo not drawn),-10.6%,15.4%,3.0%,0.7%,-6.2,?,-1.6

Fetched by compound from above, two records:
smiles,gsp antagonist,Sfp inh,PINK1 modulator,ClpP mod,D2 ag,gsp ag,Menin MLL FP FL
CNC(=O)CSc1ncnc2c1cnn2-c1ccccc1,-9.3%,3.0%,1.9%,·,2.7,-12.1%[15.4 µM],1.7
COc1ccc(C(=O)CC(=O)C(=O)Nc2ccc(C)cc2Cl)cc1,5.8%,5.4%,4.9%,-0.6%,-7.2,-7.6%[15.4 µM],1.3

Going on with the list.
smiles,gsp antagonist,Sfp inh,PINK1 modulator,ClpP mod,D2 ag,gsp ag,Menin MLL FP FL
COc1ccc(S(=O)(=O)NNC(=O)c2sccc2-n2cccc2)cc1,3.4%,5.3%,1.1%,·,-17.9,-3.9%[15.4 µM],1.5
Cc1ccc(C)c(OCCC(=O)Nc2ccc3c(c2)OCO3)c1,5.5%,·,3.1%,2.0%,-0.5,-3.2%,·
COc1cc(CNCc2cccnc2)ccc1OCc1ccccc1,8.4%,-24.9%,0.9%,-8.6%,-7.9,5.5%[15.4 µM],-4.2
O=C(Nc1c(C(=O)Nc2cccc3ccccc23)cnn1-c1ccccc1)c1ccco1,?,10.9%,2.8%,-1.3%,-1.5,-23.6%,4.6
O=C1CCCC/C1=C\Nc1ccccc1C(=O)O,7.0%,-3.1%,0.1%,31.6µM*,0.7,-1.6%,2.1
OCC1(CCCc2ccccc2)CCN(Cc2cc(F)ccc2F)CC1,2.6%,13.9%,-1.2%,-0.7%,3.3,-12.9%,-3.4
O=S(=O)(c1ccc2c(c1)OCCO2)N1CCN(c2nc3ccccc3s2)CC1,4.0%,0.6%,1.1%[38.3 µM],-2.5%,0.2,-20.5%,1.7
COc1ccc2sc(NCc3ccccc3)nc2c1,-0.5%,4.5%,1.5%,1.1%,7.8,-32.1%[inhibitor],-2.5
CCn1c(=N)n(CC(O)c2ccccc2)c2ccccc21 (stereo not drawn),2.1%,-21.3%,-1.4%,0.2%,-4.5,-81.1%[inhibitor],1.0
Cn1ccnc1SCC(=O)Nc1cccc([N+](=O)[O-])c1,11.2%,1.9%,0.5%,·,-8.0,-9.4%[15.4 µM],1.3
Cc1ccccc1CNCCCSc1ncccn1,10.6%,-1.7%,-0.7%,-2.5%,2.2,-1.7%[15.4 µM],-2.6
COc1ccc(N2C(=O)CC(NC3CCCCNC3=O)C2=O)cc1 (stereo not drawn),0.9%,3.8%,0.8%,0.5%,-2.9,-20.3%,-0.6
Cc1cccc(C)c1NC(=O)CN(C)CC(=O)Nc1ccccc1Br,8.0%,17.0%,0.3%,-0.3%,-1.3,-35.4%,2.7
COc1ccccc1-c1cnc(C(O)c2ccc(SC)cc2)[nH]1 (stereo not drawn),·,·,0.4%,-5.4%,-1.5,·,·
O=c1oc2ccc(Cl)cc2nc1/C=C(\O)c1cccs1,-0.3%,?,-2.4%,-1.9%,5.7,-10.6%[15.4 µM],?
C[C@H]1CCC[C@]2(O[C@H](CCO)C[C@H](O)[C@H]2O)O1,3.1%,·,-0.9%,-0.3%,-2.4,2.7%,·
CCN(CC)CCCNC(=O)CNC(=O)c1nn(-c2ccc(OC)cc2OC)c(=O)c2ccccc12,·,·,1.1%,0.8%,0.6,-41.7%,·
COc1ccc(OCC(=O)Nc2c3c(nn2C(C)(C)C)CSC3)cc1,-16.2%,-12.2%,0.4%,·,1.5,12.4%[15.4 µM],0.7
COc1ccc(CN2CCN(CCSc3ccc(C)cc3)CC2)c(OC)c1OC,8.3%,?,8.4%,0.0%,-4.3,6.5%,-3.5
CN(CCc1ccccn1)C(=O)CCC1CCCN(C(=O)c2c3c(nn2C)CCCC3)C1 (stereo not drawn),-0.7%,10.4%,-1.0%,·,-10.9,-0.7%[15.4 µM],-10.4
O=c1c2ccccc2ncn1-c1ccc(Cl)cc1Cl,-2.0%,3.9%,0.7%,-1.4%,-2.0,-7.6%,-1.2
CN(C)CC1CCCCC1C1(O)c2ccccc2CSc2sccc21 (stereo not drawn),7.6%,-22.5%,0.4%,-1.0%,-12.1,0.9%,-3.6
Cc1ccc(S(=O)(=O)/N=C/c2cc(Br)ccc2O)cc1,-5.2%,7.1%,0.9%,-3.0%,-1.0,9.6%,3.2
CCN(CC)S(=O)(=O)c1cccc(C(=O)NNC(=O)c2ccc3[nH]c(=O)c(=O)[nH]c3c2)c1,1.8%,14.3%,-1.5%,?,1.7,12.6µM*,-2.3
CCN1CCN(S(=O)(=O)c2ccc(Cl)c(C(=O)N(C)Cc3ccccc3)c2)CC1,3.8%,·,-1.8%,-2.8%,-3.6,-50.2%[inhibitor],·

Three entries already listed, arranged by molecular weight, smallest number first:
smiles,gsp antagonist,Sfp inh,PINK1 modulator,ClpP mod,D2 ag,gsp ag,Menin MLL FP FL
Cc1onc(-c2ccccc2)c1C(=O)NC1CC1,11.9%,·,0.3%,·,2.2,-1.1%[15.4 µM],·
CC12CCC(c3c(C(=O)O)nn(-c4ccccc4)c31)C2(C)C (stereo not drawn),-2.2%,7.5%,·,-2.2%,-4.2,0.7%,0.5
O=C(Nc1c(C(=O)Nc2cccc3ccccc23)cnn1-c1ccccc1)c1ccco1,?,10.9%,2.8%,-1.3%,-1.5,-23.6%,4.6
